Tg IFNy HTS = inhibitors of Toxoplasma gondii growth with IFN-gamma; Toxoplasma gondii growth in IFN-gamma-treated host cells; hits give low values; reference of the scale not given here; activity change, negative = inhibition, %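 (about 20 µM by stock and volumes)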; 69,000 tested, 3.8% active; AID 1259416;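 active = below -70%; inconclusive = fit judged invalid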;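 also: host cells are HeLa cells infected with Toxoplasma gondii; parasite growth read as luciferase light; one replicate is shown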
* = called active by the depositor; i = inactive; ? = inconclusive; & = joins results of further samples.

SMILES	Tg IFNy HTS
Cc1ccccc1-c1ccc([C@@H]2[C@@H](CO)N3CCCCN(S(=O)(=O)Cc4ccccc4)C[C@H]23)cc1	-60
COCC(=O)N1[C@@H](CO)[C@H](c2ccc(-c3ccccc3OC)cc2)C12CN(C(C)=O)C2	2
O=C(CCN1CCCCC1)N[C@@H]1CC[C@H](CCn2cc(-c3cccc(F)c3)nn2)O[C@@H]1CO	-32
O=C(NC1CCC12CCN(C(=O)c1ccoc1)CC2)c1cnccn1 (stereo unspecified)	7
c1coc(CN(CCN2CCOCC2)Cc2nc3c(s2)CCCC3)c1	-26
S=C1N(CN2CCOCC2)CCN1CN1CCOCC1	19
O=C(c1cc(COc2ccc(F)cc2Cl)on1)N1CCCCC1CCc1ccccn1 (stereo unspecified)	-19
O=C(C[C@H]1CC[C@H]2[C@@H](COC[C@@H](O)CN2CCC(F)(F)F)O1)NCC1CC1	-17
Cc1oc(-c2ccccc2)nc1Cn1ncc2onc(-c3ccc(F)cc3)c2c1=O	45
Cc1ncc(CN2CCC3(CC2)CC(NC(=O)N(C)C)CCO3)[nH]1 (stereo unspecified)	5
COc1cc(NC(=O)Nc2ccnn2C)cc(OC)c1	-8
CN(C)[C@@H]1C[C@@H](CO)N(C(=O)c2cccc3c(=O)c4ccccc4[nH]c23)C1	0
CC(C)CN1CCC(CNC(=O)c2ccc(-c3cccc(CO)c3)nc2)C1 (stereo unspecified)	-6
O=C(Nc1ccccc1C(F)(F)F)c1c(O)c2ccccc2[nH]c1=O	6
CO[C@H]1CN(C)C(=O)c2cc(NC(=O)NC(C)C)ccc2OC[C@H](C)N(C(=O)CN(C)C)C[C@H]1C	1
COc1cccc(CNc2n[nH]c3nc(C)cc(C)c23)c1O	53
C=C(C)COc1ccc(-c2n[nH]c(C)c2-c2ccc(OC)cc2)c(O)c1	-52
O=C(C[C@@H]1CC[C@H]2[C@@H](COC[C@@H](O)CN2C(=O)c2ccc3c(c2)OCO3)O1)NC1CCC1	-48
Fc1cccc(Cl)c1COc1ccccc1C1NCCc2[nH]cnc21 (stereo unspecified)	13
O=C(Cc1ccc2c(c1)OCO2)N1CCC(CO)(Cc2ccccc2)CC1	-2
Cc1nc(CSCc2ccc(Cl)cc2Cl)cs1	29
COCCn1nnnc1CN1CCN2CCCC2C1 (stereo unspecified)	-6
COc1ccc(-c2nn(-c3ccccc3)cc2C(=O)NCc2ccco2)cc1	-13
COC(=O)c1c(C(=O)OC)c2n(c1C)CCC2	5
Cc1cccc(NC(=O)Cn2c(=O)cc(C(=O)N3CCCCC3)c3ccccc32)c1	-45
CCCc1nc(CNC2CCc3ccc(OC)cc3C2)cs1 (stereo unspecified)	-7
CCCCN(CCCC)CCCNC(=O)C1=C(C)C(=O)OC12CCN(CC)CC2	127
O=C(OCC#CCSc1nc2ccccc2o1)c1cc2ccccc2o1	41
Cc1ccc(S(=O)(=O)N[C@@H]2C=C[C@H](CC(=O)NCc3ccc(Cl)c(Cl)c3)O[C@H]2CO)cc1	-52
CCC(=O)N1Cc2cncn2CC(COCC2CCC2)C1 (stereo unspecified)	147
CN(C)S(=O)(=O)c1ccc2c(c1)cc(C(=O)NCc1ccco1)n2Cc1ccncc1	31
COc1ccc2c3c([nH]c2c1)[C@@H](CO)N(C(=O)Nc1ccc(F)cc1)CC31CN(C(=O)Nc2c(C)noc2C)C1	-49
COc1ccc(Cn2nnnc2CN2CCCC(c3[nH]ncc3-c3ccncc3)C2)cc1 (stereo unspecified)	?
O=C(NCCc1csc(-c2ccc(F)cc2)n1)C(=O)Nc1cccc([N+](=O)[O-])c1	93
CCc1cccc(-n2nnc(C(=O)N3CCC(N4CCCCC4)CC3)c2-c2cccnc2)c1	21
O=C(c1ccccn1)N1CCCC2(CCN(c3cncnc3)C2=O)C1 (stereo unspecified)	-39

Part of the list above, as labelled records:
CCCCN(CCCC)CCCNC(=O)C1=C(C)C(=O)OC12CCN(CC)CC2
  Tg IFNy HTS: 127

O=C(OCC#CCSc1nc2ccccc2o1)c1cc2ccccc2o1
  Tg IFNy HTS: 41

Cc1ccc(S(=O)(=O)N[C@@H]2C=C[C@H](CC(=O)NCc3ccc(Cl)c(Cl)c3)O[C@H]2CO)cc1
  Tg IFNy HTS: -52

(listing goes on)
SMILES	Tg IFNy HTS
COCCN1CCCC(O)(CN2CCC(Cc3ccc(F)cc3)CC2)C1=O (stereo unspecified)	-1
Cc1ccc(S(=O)(=O)Nc2cncc(C(=O)N3CCN(Cc4ccc5c(c4)OCO5)CC3)c2)cc1	-37
CO[C@H]1CN(C)C(=O)c2cc(NC(=O)c3nc4ccccc4s3)ccc2OC[C@H](C)NC[C@H]1C	-111*
CCN(CCOc1cccc(Cl)c1)C(=O)c1ccc(=O)n(C)c1	-3
CC(=O)Oc1c(-c2ccccc2)c2nc3ccccc3nc2c2ccccc12	11
CC(O)CN1CCCC2(CCN(c3cnccn3)CC2)C1 (stereo unspecified)	9
C/C=C/c1ccc([C@@H]2[C@H](C#N)N(C(=O)NC3CCCCC3)[C@H]2CO)cc1	-1
COc1cccc(CC(=O)N2CCC3(CC2)Nc2cc(F)ccc2-n2cccc23)c1	51
Cc1cc(C(=O)N2CCC(Oc3ccc(C(=O)NCCc4ccccc4)cc3)CC2)no1	-20
Cc1ccc(C2(O)CCN(c3ncnc4onc(C)c34)CC2)nc1	-49
CO[C@H]1CCN(S(=O)(=O)c2ccc(C)cc2)[C@H]1Cc1cnn(C)c1	-1
COC1COC2(CCN(S(=O)(=O)c3ccc(F)cc3)CC2)C1 (stereo unspecified)	2
COc1ccccc1-n1cc(CN2CCC3(CC2)C(=O)N(C(C)C)C(=O)N3C)cn1	-1
O=C(Cc1ccccc1)NNC(=O)Cc1ccccc1	-8
O=C(NCCc1cccs1)[C@H]1CO[C@@H]2CCNC[C@@H]2C1	2
Cc1cc(C(=O)N2CCCN(CC3CC3)C(C(C)C)C2)cc2sc(N)nc12 (stereo unspecified)	-1
CCCC(=O)Nc1ccc2c(c1)C(=O)N(C)[C@@H]1CC[C@H](CC(=O)NCc3cccc(F)c3)O[C@H]1CO2	-43
COC(=O)N(C)c1c(N)nc(-c2nn(Cc3ccccc3F)c3ncccc23)nc1N	12
CCN(CC)c1ncnc2c1cnn2CC(=O)NC1CCCCCC1	71
Fc1ccc(CN2CCOCC3(CC(Cn4cnnc4)CO3)C2)cc1 (stereo unspecified)	4
COc1ccc(C[C@H]2CN(C(=O)c3ccnn3C)CC[C@@H]2OC)cc1	12
CN(C)CCNC(=O)c1ccc2ccc(N(C)c3ccccc3)n2c1	334
Cc1nnsc1CN(C)Cc1cccc(C(=O)Nc2c(C)noc2C)c1	-2
Cc1nn2c(C3CCCN(C(=O)OC(C)(C)C)C3)ccnc2c1-c1cccs1 (stereo unspecified)	-77*
CCOc1ccccc1NC(=O)C(=O)NCCc1csc(-c2cccc(F)c2)n1	-13
COCCn1c(C(=O)N2CCN(C(C)C)CC2)cc2c1c1ccccc1n2C	-56
Cc1ccccc1C(=O)N1CCC2(CCC(COCC3CC3)N2C)CC1 (stereo unspecified)	-10
CC(CN1CCOCC1)NC(=O)c1cc(-c2ccc(Cl)cc2)n(C)n1 (stereo unspecified)	-2
COCCN1C(=O)CCc2cc(NS(=O)(=O)c3ccc(F)c(C)c3)ccc21	-20
COCCC(=O)c1nc(-c2cn(C(C)C)c(C)n2)n2ccccc12	36
COc1ccc(-c2nc3c(s2)CN(S(=O)(=O)c2ccc(C)c(C)c2)CC3)cc1OC	-98*
O=C(Nc1ccc(Cl)c(Cl)c1Cl)NC1CCSC1 (stereo unspecified)	-75*
Cc1ccc(NC(=O)C(=O)NCCc2csc(-c3ccc(Cl)cc3)n2)cc1F	77
CCCNC(=O)N1C[C@@H](O)COC[C@H]2O[C@H](CC(=O)OC)CC[C@@H]21	-29
O=C(Nc1ccc(Cl)cc1)O/N=C1\CCSC1	-49
Cn1nnc2c1C(COCc1ccccc1)CN(C(=O)C(C)(C)C)C2 (stereo unspecified)	-9
Cc1ccc(C(=O)N2CCC3(CC2)CC(CC(=O)NCC(C)C)c2ccccc2O3)o1 (stereo unspecified)	-39
Cn1c(-c2ccc(C#N)cc2)nc(=O)c2cc(Cl)ccc21	44
Cc1cc(C)n(-c2ccc(-n3cnnc3)cc2)n1	0
COc1ccccc1CCCNC(=O)[C@@H]1CCC(=O)N1	4
Cc1ccccc1CC(C1CCN(C(=O)c2ccc3ccccc3c2)CC1)N(C)C(=O)C1CCC1 (stereo unspecified)	2
COc1ccc([C@@H]2C/C=C\C[C@H](c3ccc4c(c3)OCO4)NC(=O)CCC(=O)N2)c(OC)c1	-50
CO[C@@H]1CN(C)C(=O)c2cc(NC(=O)NC3CCCCC3)ccc2OC[C@@H](C)N(CC2CCOCC2)C[C@H]1C	-4
Cc1nc(C)c(C)nc1C	29
O=C(NC[C@H]1N[C@H](CO)[C@@H]1c1ccccc1)c1ccccc1F	-16
CCN1CCn2c(-c3cnn(C)c3)cnc2C12CCN(S(=O)(=O)C1CC1)CC2	2
N#C[C@@H]1[C@@H](c2ccc(C3=CCCCC3)cc2)[C@H](CO)N1C(=O)CN1CCOCC1	3
CSc1ccccc1C(=O)N1CCc2c(c(C(=O)N(C)Cc3cscn3)nn2CC2CC2)C1	-5
COc1nn(CC(=O)NCCCc2ccc(Cl)cc2)c(=O)c2ccccc12	-32
Cn1nc(-c2cccc(F)c2)c2c1C[C@H]1CN(C(=O)c3ccncc3)C[C@H]21	4
CCCc1cc(=O)[nH]c(SC/C=C/c2ccccc2)n1	38
COCCCN(Cc1ccccn1)Cc1nc2ccccc2[nH]1	28
CC(C)CCN1C(=O)C2(NCCc3c2[nH]c2ccc(F)cc32)c2ccccc21 (stereo unspecified)	141
COCCN1C(=O)CCc2cc(NS(=O)(=O)c3cccc(F)c3)ccc21	26
Cc1ccc(-c2cc(C(=O)N3CCN(Cc4ccco4)C[C@@H]3C(C)C)n[nH]2)o1	12
Cc1c(O)cc(C(=O)NCc2cccnc2Oc2ccccc2F)cc1O	-16
Cc1ccccc1-c1ccc(C2[C@@H]3CN(C(=O)c4ccc(F)cc4)C[C@H]2N3)cc1 (stereo partly specified)	-48&-67
Cc1ccc(OC2(C(=O)N3C[C@H]4CC=CC[C@H]4C3)CCNCC2)cc1	-14
CCc1ccccc1S(=O)(=O)N1CCC[C@@H]1C(=O)NCCc1csc(-c2ccccc2)n1	-12
CCN1CCC2(CC1)OC(=O)C(C)=C2C(=O)Nc1cc(C)ccc1C	46

Rewritten as labelled records: entries from further up.
> COCCN1C(=O)CCc2cc(NS(=O)(=O)c3cccc(F)c3)ccc21
  Tg IFNy HTS = 26

> Cc1c(O)cc(C(=O)NCc2cccnc2Oc2ccccc2F)cc1O
  Tg IFNy HTS = -16

Continued:
SMILES	Tg IFNy HTS
O=c1[nH]c(CSc2ccccn2)nc2ccccc12	i
CCOC(=O)c1cnc(S(=O)(=O)CC)[nH]1	-21
COc1ccc(-c2nccn2CCc2c(C)n[nH]c2C)c(OC)c1	2
Cn1ccnc1[C@@H]1C[C@H](NC(=O)c2ccccc2)C[C@H](Cc2ccccc2)O1	-28
CC(C)N(C[C@H]1[C@@H](c2ccccc2)[C@@H](CO)N1CC1CC1)C(=O)C1CCC1	4
CN1CCCc2ccc(NC(=O)CCc3ccc(S(=O)(=O)N(C)C)cc3)cc21	8
CCn1c(C)ccc(C(=O)N[C@H]2C[C@H]3C(=O)N(C)CC(=O)N3C2)c1=O	-12
CS(=O)(=O)N1CCOC2C(COCc3nccs3)CCC21 (stereo unspecified)	-10
CCCc1cc(N2CCCC(Nc3ccc4c(c3)OCCO4)C2)nc(C)n1 (stereo unspecified)	4
OC1(c2cccc(C(F)(F)F)c2)CCN(Cc2nnnn2Cc2ccccc2)CC1	?
CCC(=O)Nc1ccc(Br)cn1	4
CCCCCCCC(=O)Nc1nnc(Sc2ccnc3cc(Cl)ccc23)s1	-94*
O=C(NC[C@@H]1[C@@H](c2ccccc2)[C@@H](CO)N1Cc1cccnc1)c1ccccn1	-9
COc1ccc2c(c1)cc(C(=O)NCc1ncc[nH]1)n2C	30
Cc1nc(N2CCCC2)nc2c1CCN(Cc1ccco1)CC2	-7
O=C1OCCCN1CCn1ccnc1-c1cnc(N2CCCC2)s1	-5
Cc1cc(NCCNC(=O)C(C)n2nc(C)cc2C)c2ccccc2n1 (stereo unspecified)	1
CCCN(C/C=C/c1ccccc1)C(=O)c1c(C)nc2ncccn12	-4
CSc1ccc(-c2nc(CN3CCN(C)C(CCO)C3)c(C)o2)cc1 (stereo unspecified)	-4
Cc1cccc(CN2CCn3c(CNC(=O)C4CC4)cnc3C2)n1	-3
CCCNC(=O)N1[C@@H](CO)[C@@H]2c3ccccc3N(C(=O)Nc3cccc(Cl)c3)C[C@@H]21	-17
CCOC(=O)N1CCC(Nc2c(C(=O)OC)c(=O)[nH]c3ccc(F)cc23)CC1	-1
O=C(O)C1CC(=O)N(Cc2scnc2-c2ccccc2)C1 (stereo unspecified)	6
CCn1cc(CN2N=C(C)CC2c2ccccc2)c(C)n1 (stereo unspecified)	31
O=C(c1n[nH]c2c1CCCC2)N1CCOC2(CNCCOC2)C1 (stereo unspecified)	2
Cc1csc(SCC(=O)N2CCC(c3cc(C(C)C)n[nH]3)CC2)n1	-2
O=C(Nc1cccc(Cl)c1)N1CCN2C(=O)c3ccccc3C12c1ccccc1 (stereo unspecified)	53
Cn1ccn2ncc(C(=O)N3CCCC(C(=O)NCCCO)C3)c12 (stereo unspecified)	-14
CCc1ccccc1-c1ccc(NC(C)=O)c(OC)c1	-9

Among those listed so far, these have a thiophene ring, fused or not:
SMILES	Tg IFNy HTS
O=C(NCCc1cccs1)[C@H]1CO[C@@H]2CCNC[C@@H]2C1	2
Cc1nn2c(C3CCCN(C(=O)OC(C)(C)C)C3)ccnc2c1-c1cccs1 (stereo unspecified)	-77*

Source: PubChem BioAssay (Broad Institute)

An excerpt. The share of hits here may be higher or lower than overall.
